Bm FixLJ act: activators of Burkholderia fixLJ two-component system; B. multivorans fixK-promoter GFP reporter, 18 h; stronger effect = higher value; hit rate 0.3% among 29,000; AID 1918990; z-score (no concentration beside the values);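 active means replicate mean overnight rise in green fluorescent reporter signal, 3 or more SD over negative controls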;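 further: score is relative to vehicle wells of the plate; 300 nL library stock went into each well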
* = called active by the depositor. Some of the compounds tested (hit frequency here may not be typical).

Molecule	Bm FixLJ act
COc1ccc(OC)c(NC(=O)C2CCN(S(=O)(=O)c3ccc(C)cc3)CC2)c1	-2.2
CC1CN(C(=O)Nc2ccc(C(=O)NCc3ccccc3F)cc2)c2ccccc2S1 (stereo not given)	-3.8
COc1ccc(F)cc1NC(=O)C1CCN(c2nc(-c3ccc(OC)c(OC)c3)no2)CC1	-0.1
Cc1ccc(NC(=O)C2CCCC2)cc1NC(=O)NC1CCOCC1	-1.3
COc1ccc(-c2nc(CSCC(=O)N3CCN(c4ccc(F)cc4)CC3)c(C)o2)cc1	0.13
COc1ccc(Cn2nnc3c(=O)[nH]c(C4CCCN(C(=O)c5ccc(C)cc5)C4)nc32)cc1 (stereo not given)	-1.7
C[N+](C)(C)CCOP(=O)([O-])OP(=O)(O)OC[C@H]1OC(n2ccc(N)nc2=O)[C@H](O)[C@@H]1O (stereo not given in full)	-1.3
Cc1ccc(CN2CCN(C(=O)CC(C)C)C3CS(=O)(=O)CC32)cc1C (stereo not given)	1.3
CCn1ccc(CN2CCCN(C(=O)c3c(C)ncnc3C)CC2)n1	-0.1
Cc1cc(NC(=O)NCCSc2cn[nH]n2)ccc1N1CCCC1=O	-0.48
Cc1cc(C)n(CCCN2C(=O)CC3C2CCN3c2nc(N)nc(C)c2Cl)n1 (stereo not given)	-0.44
COc1ccc(-c2cc(C(=O)Nc3c(C)nn(Cc4ccccc4C)c3C)no2)cc1	-1
CCOc1ccccc1NC(=O)Cn1cnc2sc(C)c(S(=O)(=O)N3CCC(C)CC3)c2c1=O	-1.2
COc1ccc2c(c1)CCc1c(C(=O)Nc3cnn(Cc4ccc(Cl)cc4Cl)c3)noc1-2	1
COc1ccc(-c2cc(C(=O)Nc3cc(C)nn3-c3ccccc3)no2)cc1OC	-0.15
CCCn1nccc1S(=O)(=O)N(C)CC1CCCNC1 (stereo not given)	0.19
COc1ccc(CNC(=O)C2CCN(S(=O)(=O)c3ccc4nc5c(c(C(=O)O)c4c3)CC(C)CC5)CC2)cc1 (stereo not given)	-1.4
COc1ccccc1/C=C/c1nc(C#N)c(NC2CCCCC2)o1	0.13
CCN(CC)Cc1ccc(Nc2ccnc3cc(Cl)ccc23)cc1O	-1.8
CC(C)c1nccn1CCCNC(=O)CC1CCN(C(C)C)CC1	-1.9
O=C(Nc1ccc(Br)cc1)c1cccc(C(=O)Nc2ccc(Br)cc2)c1	-1.2
COc1ccccc1-c1nc2n(n1)C(c1ccccc1Cl)C(C(=O)Nc1cccnc1)=C(C)N2 (stereo not given)	-0.29
CCOCN(C(=O)Cn1c(C)nc2ccccc21)c1c(C)cccc1CC	0.26
Nc1c(C(=O)Nc2ccccc2Br)sc2nc(-c3cccs3)ccc12	-4.1
O=C(CSc1ncc2c(n1)-c1ccccc1N(Cc1ccc(F)cc1)S2(=O)=O)c1ccc(Br)cc1	-1.4
COc1cccc(N2CCN(C(=O)c3ccc4c(=O)n(CCc5ccccc5)c(=O)[nH]c4c3)CC2)c1	-0.88
CCOC(=O)CC(NC(=O)c1cc2cc(Br)cc(OC)c2oc1=O)c1ccc(OC)cc1 (stereo not given)	-1.6
Cc1ccc(OCC(=O)NCCc2noc(C(F)(F)F)n2)cc1	-0.15
COc1ccc(-c2cc3nc(C)c(CCC(=O)NC4CCCCC4)c(C)n3n2)c(OC)c1	0.15
CCc1ccc(-n2nc3ccc(NC(=O)c4cc5ccccc5o4)cc3n2)cc1	-0.02
COc1ccccc1CNC(=O)CCCn1c(=O)c2ccccc2n(Cc2ccccc2C#N)c1=O	-0.96
COc1ccccc1-c1nnc(SCC(=O)c2ccc(Cl)cc2)n1-c1ccccc1	0.01
Cc1ccc2[nH]c(=O)c3cc(C(=O)NCc4cccc(Cl)c4)sc3c2c1	0.07
COC(=O)c1c(NC(=O)CCCOc2ccc(C)cc2)sc2c1CCCC2	0.21
COc1cccc(CNC(=O)CSc2c3c(nc4ccc(Cl)cc24)CCCC3)c1OC	-2.8
COc1ccccc1C=CCN1CCNC(=O)C1CC(=O)N(C)C (stereo not given)	-0.48
CC(C)c1ccc(NC(=O)Cn2c(=O)n(CCc3ccccc3)c(=O)c3ccccc32)cc1	-2.8
Cc1nnc(N2CCN(c3ccc(Cl)cc3)CC2)c2c1nnn2Cc1ccc(F)cc1	0.63
CCC1(CO)CCN(C(=O)c2cc(COc3ccccc3F)[nH]n2)CC1	-4.8
COc1cc(C2NC(=O)NC(C)=C2C(=O)Nc2cc(C)cc(C)c2)ccc1O (stereo not given)	-2.1
COc1cc(N2CCCC3(CCC(=O)N(CC4CC4)C3)C2)nc(N)n1 (stereo not given)	-3.4
CCOc1ccccc1-n1c(C)nc2cc(C(=O)O)ccc21	-1.4
Cc1ccc(CN(C)CC(=O)NC2COCC2Cc2ccnc3ccccc23)cc1 (stereo not given)	-0.08
Cc1nc(C)c(C(=O)NC2CCN(c3cnccn3)CC2)s1	-0.09
CCCc1cc(=O)[nH]c(Nc2cc(C)cc(C)c2)n1	0.28
Cc1nc(C)c(-c2cccc(C(=O)NCC3(Cn4cccn4)CC3)c2)s1	0.21
COc1cc2c(cc1OC)C(COc1ccc3c(C)cc(=O)oc3c1)N(C(=O)c1ccccc1F)CC2 (stereo not given)	-0.1
Cc1cc(C)n(CC2(CNC(=O)Cc3sc(C)nc3C)CC2)n1	-0.77
Cc1cccc(-c2nc3c(cnn3-c3ccccc3)c(=O)n2-c2ccc(Br)cc2)c1	0.81
COC1CC[C@@]2(OC)CCN(C(=O)c3ccc(-n4ccnc4)cc3)C2C1 (stereo not given in full)	0.01
Cc1nn(CC(=O)N2CCCCC2)c(=O)c2cc3occc3n12	-0.39
CCC(Cc1ccccc1)NC(=O)Cn1ncc2c3ccccc3n(Cc3ccc(F)cc3)c2c1=O (stereo not given)	-0.57
CCc1ccccc1NC(=O)c1sc2nc3c(cc2c1N)CN(Cc1ccccc1)CC3	-1.7
COc1ccc(F)c(CN2CCCC3(CCN(CCCO)C3)C2=O)c1 (stereo not given)	-0.05
Cc1nc(CN2CCn3nc(CNS(C)(=O)=O)cc3C2)n(C)c1C	2
CCOC(=O)c1cc2c(=O)n3ccccc3nc2n(Cc2ccco2)c1=NC(=O)c1ccccc1OC	0.15
COc1ccccc1-c1nc(S(=O)(=O)c2ccccc2)c(N2CCC(C)CC2)o1	-1.1
CCc1ccccc1NS(=O)(=O)c1ccc2[nH]cc(C(=O)N3CCCCC3)c(=O)c2c1	0.97
CCCCNc1cc(NC2CCCCC2)c2c3c(onc13)-c1ccccc1C2=O	4.2*
COc1cccc(CNC(=O)CN(c2ccc(C(C)C)cc2)S(=O)(=O)c2c(C)noc2C)c1	-2

Remaining list, next part.
| Structure | Bm FixLJ act |
| --- | --- |
| COCCn1c(=N)c(C(=O)NCC2CCCO2)cc2c(=O)n3ccccc3nc21 (stereo not given) | -0.97 |
| CN(Cc1cc2cc(F)ccc2[nH]1)C(=O)CCCn1cnnn1 | 1.8 |
| O=C(Cn1c(=O)oc2cc(S(=O)(=O)N3CCCC3)ccc21)NCc1ccc(Cl)cc1 | -0.52 |
| COc1cc2c(cc1OC)C1(CCN(C(=O)c3ccc[nH]c3=O)CC1)OCC2 | -0.88 |
| Cc1cc(-c2nc3ncccc3o2)ccc1NC(=O)COc1ccc(C(C)(C)C)cc1 | -0.31 |
| CCCc1cc(CN(C)C(=O)C2CCCCN2Cc2ccccc2)[nH]n1 (stereo not given) | -1.3 |
| O=C(NCc1cc2n(n1)CCCN(CC=Cc1ccc(F)cc1)C2)C1CCC1 | -0.07 |
| COc1ccc(OC)c(C2CC(=O)Nc3ccc4ccccc4c32)c1 (stereo not given) | -0.86 |
| CCN(Cc1nc(C)no1)C(=O)c1cc(-c2cccc(OC)c2)n[nH]1 | -1.1 |
| CCCCNC(=O)CSc1nc2nc(C)c(Cc3ccccc3C)c(C)n2n1 | -2.3 |
| NS(=O)(=O)c1ccc(CCNC(=O)c2nc(SCc3ccccc3F)ncc2Cl)cc1 | -1.4 |
| CCOC(=O)Cc1c(C(=O)OCC)nnc2c(-c3ccccc3)c(C)nn12 | 0.45 |
| CC(C)CN(CC(C)C)C(=O)C1CCCN(S(=O)(=O)c2ccc3c(c2)oc(=O)n3C)C1 (stereo not given) | -1.6 |
| COc1ccc(CNC(=O)c2cccc(N3CCCS3(=O)=O)c2)cc1OC | -0.64 |
| COCCc1noc(CN2CCc3onc(-c4ccc(F)c(F)c4)c3C2)n1 | -0.46 |
| CC(=O)N1CCc2cc(S(=O)(=O)NC(Cc3ccccc3)C(=O)NCc3ccccc3)ccc21 (stereo not given) | -0.58 |
| COCCCN(Cc1ccccc1OC)C(=O)NC1CCCCCC1 | -0.41 |
| COc1ccc(CCN2C(=O)N(c3ccc(F)cc3)C(=O)C2CC(=O)Nc2ccccc2)cc1OC (stereo not given) | -0.41 |
| Cc1ccc(C(Nc2ccccn2)c2ccc3cccnc3c2O)cc1 (stereo not given) | 0.35 |
| O=C(NCCC(=O)N1CCC2(CC1)OCCc1sccc12)c1ccc(F)cc1 | -0.06 |
| O=C(c1ccc2nccnc2c1)N1CCCC(c2nccn2CC2CCC2)C1 (stereo not given) | 0.57 |
| COc1ccc(NC(=O)C(Cc2ccccc2)NS(=O)(=O)c2ccc3c(c2)oc(=O)n3C)c(OC)c1 (stereo not given) | 0.33 |
| CCOC(=O)CNC(=O)N1CCc2cc(S(=O)(=O)N3CCC(C)CC3)ccc21 | -0.83 |
| NC(=O)CN1CCCC1=O | -1.6 |
| O=C(NC1CCCCC1)c1c[nH]c2ccc(S(=O)(=O)Nc3ccccc3F)cc2c1=O | -1.1 |
| COC(=O)c1cc2oc(C)cc2n1Cc1cccc(Cl)c1 | 0.98 |
| CNc1nc2c(c(C(=O)N3CCCC3)n1)CN(Cc1ccc(F)cc1)CC2 | -0.56 |
| COCCN(C)CC(=O)NC1COCC1Cc1ccncc1 (stereo not given) | -0.43 |
| CCCNC(=O)N1CCc2ccc(S(=O)(=O)N3CCCC3)cc2C1 | -0.46 |
| Cc1cc(C)cc(OCC(=O)Nc2c(C(=O)c3ccccc3)oc3ccccc23)c1 | -1.3 |
| O=C(NC1CCCCC1)c1ccc(CSc2nc3ccncc3n2Cc2cccc(F)c2)cc1 | -2.5 |
| Cc1cc(C)c(NC(=O)c2sc3nc(C)cc(C)c3c2NC(=O)c2ccccc2)c(C)c1 | -2 |
| CCc1noc(CN2CCN(C(=O)c3ccccn3)C3CS(=O)(=O)CC32)n1 (stereo not given) | -0.16 |
| CCC(O)C(=O)N1CCC2(CC1)Nc1ccccc1NC2=O (stereo not given) | -0.58 |
| O=C(Nc1sc2c(c1C(=O)NCc1cccnc1)CCCC2)c1cc(=O)c2ccccc2o1 | -0.66 |
| COc1ccc(-c2nc(CNS(=O)(=O)c3ccc(C)cc3)cs2)cc1 | -0.67 |
| O=C(CC(NCc1cccnc1)C(=O)O)Nc1ccc(O)cc1 (stereo not given) | 0.02 |
| Cc1ccc(CNC(=O)c2ccc(CSc3nc4ccncc4n3Cc3ccc(C)cc3)cc2)cc1 | -3.6 |
| COc1ccccc1NC(=O)c1oc2ccccc2c1NC(=O)C1CCCCC1 | -1.4 |
| Cc1cccc(C(=O)NC2COCC2Cc2ccncc2)c1C (stereo not given) | -0.5 |
| COc1ccc(NC(=O)c2ccco2)cc1NC(=O)COc1cc(C)ccc1C(C)C | -2.2 |
| COc1ccc(OC(C)C(=O)NCc2nc(-c3ccc(Cl)cc3)no2)cc1 (stereo not given) | -3 |
| CCOc1ccc(CCNC(=O)CSc2nc3ccccc3nc2Cc2ccc(C)cc2)cc1OCC | 0.13 |
| Cc1cc2oc(C(=O)NCCc3ccc(S(N)(=O)=O)cc3)cc(=O)c2cc1C | -1.2 |
| Cc1ccc(-n2cccn2)cc1S(=O)(=O)NC(C)c1cnn(C)c1C (stereo not given) | -0.24 |
| O=C(Nc1ccc(Oc2ccccc2)cc1)C1CCN(S(=O)(=O)c2ccccc2)CC1 | -1.6 |
| CCn1c(C(=O)N2CCC(C(=O)NCCc3ccccc3)CC2)cc2sccc21 | -0.29 |
| Clc1ccccc1Cc1cn2cc(-c3ccccc3)nc2s1 | -2.5 |
| C=C[C@H]1CN2CC[C@H]1C[C@H]2[C@H](O)c1ccnc2ccccc12 | -0.68 |
| CCOc1ccc2oc(=O)cc(CN3CCN(C(=O)c4cccc(Cl)c4)CC3)c2c1 | -0.6 |

The list goes on.
| Structure | Bm FixLJ act |
| --- | --- |
| CCC(C)OC(=O)/C(C#N)=C/c1ccc(-c2ccc(Br)cc2)o1 (stereo not given) | 0.47 |
| CCc1ccc(CNC(=O)c2cc3c(s2)-c2ccccc2OC3)cc1 | -0.73 |
| O=C(NCc1ccccc1)c1ccc2c(c1)N(Cc1ccccc1)C(=O)c1ccccc1S2(=O)=O | 0.92 |
| Cc1ccc(CN2C(=O)C(O)(CC(=O)c3ccc(C)cc3)c3ccccc32)cc1 (stereo not given) | -0.37 |
| CCOc1cc(C(=O)Nc2ccc(-c3nc4ncccc4o3)cc2C)cc(OCC)c1OCC | -1.8 |
| CCOc1cccc(C(=O)NCC2CCN(C(=O)C(O)c3ccccc3)CC2)c1 (stereo not given) | 1.3 |
